Screens: PubChem BioAssay, National Center for Advancing Translational Sciences (NCATS)
TRPML1 ag = agonists of human TRPML1 channel; activation, % (concentration not given with the values); AID 624414; TRPML1-expressing cells, Ca2+ dye fluorescence, FDSS; host cell line not named in the record; reference of the full effect not given here; 0.12% of 410,000 active; in the data active = activation above about 50%; inconclusive = about 30% to 50%; inactive = below about 30%; note: 0% is about no effect; the text of the record puts the active cut at 80%
Target sequence (Q9GZU1 whole entry, looked up): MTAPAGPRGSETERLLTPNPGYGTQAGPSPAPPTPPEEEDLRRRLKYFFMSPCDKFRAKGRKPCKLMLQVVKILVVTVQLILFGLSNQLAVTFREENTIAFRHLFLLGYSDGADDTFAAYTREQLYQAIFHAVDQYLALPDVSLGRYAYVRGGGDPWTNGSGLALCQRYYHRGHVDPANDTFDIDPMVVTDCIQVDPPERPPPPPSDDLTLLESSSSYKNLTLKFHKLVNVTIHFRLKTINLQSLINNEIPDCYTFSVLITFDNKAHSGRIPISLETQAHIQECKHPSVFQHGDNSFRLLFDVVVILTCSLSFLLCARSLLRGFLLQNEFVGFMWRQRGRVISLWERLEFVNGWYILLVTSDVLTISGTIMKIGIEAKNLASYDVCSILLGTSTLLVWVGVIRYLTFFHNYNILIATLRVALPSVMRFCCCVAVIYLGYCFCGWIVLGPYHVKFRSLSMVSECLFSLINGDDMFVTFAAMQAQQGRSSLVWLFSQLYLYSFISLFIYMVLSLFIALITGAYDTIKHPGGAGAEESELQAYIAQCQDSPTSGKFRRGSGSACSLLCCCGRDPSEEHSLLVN
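Kinetic FDSS Ca2+ read in Tet-induced TRPML1-DL cells (ABD Ca8 dye plus quencher, 45-90 min RT loading): baseline, then compound, then 110 s agonist window; EC80 agonist 54-4 at 4uM final added afterwards for a 110 s antagonist window.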
PINK1 modulator = PINK1 expression modulation; 0.2% of 410,000 active; Potency, µM (top dose mostly 76.6 µM), for the others: top-dose activation (PINK1 increase), hits mostly activators; PINK1 immunofluorescence, high-content cytometry, 24 h; active = well fitted activation curve with a large enough effect; inconclusive = small, poorly fitted or top-dose-only effect; inactive = flat fitted curve, though single readings scatter; cell line not stated here;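 note: potency is the fitted concentration of half-maximal effect; % of control where 0% means no effect; nearly all actives have a fitted effect of over 65% in size; a mitochondrial uncoupler was the plate control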
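Compound titrations (5 concentrations, 24 h) on a stable cell line; DMSO and CCCP controls. Endpoint: fixed-cell PINK1 immunofluorescence with mitochondrial, cell and nuclear markers, scanned by microplate cytometer.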
TRPV1 PAM = enhances activation of the human vanilloid receptor TRPV1; Q8NER1; TRPV1-expressing cells, Fluo-8 calcium influx, capsaicin EC20 potentiation; host cell line not named in the record; control for the full effect not named in the record; 0.02% of 320,000 active; potentiation, % at 8.33 µM; AID 540277; active means potentiation above 80%; inconclusive means 30% to 80%; inactive means below 30%; note: 0% is about no effect
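Cells expressing TRPV1 were dye-loaded with Fluo-8 and read kinetically: 10 s baseline, 3 min after compound (agonist portion), then 2 min after EC20 capsaicin (allosteric enhancer portion). Calcium-bound dye fluorescence at 480/520 nm.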
Sfp PPTase inh = blocks B. subtilis Sfp PPTase activity; Biochemical Sfp PPTase activity, qHTS; Q9F4F7; Potency, µM, for the others: max response, negative = inhibition, most hits filed as inhibitors; 3.5% of 310,000 active; active = well fitted inhibition curve with a large enough effect; inconclusive = small, poorly fitted or top-dose-only effect, or another doubt; inactive = no such curve, though single readings can be large or run the other way;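 note: the enzyme is Sfp with the accession as filed and its product quenches rhodamine fluorescence; potency is the fitted concentration of half-maximal effect; 0% = enzyme reaction without inhibitor and -100% = no enzyme wells; top concentration of the series not given in the record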
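Compounds were incubated with enzyme (final 15 nM) for 15 min at room temperature before substrate addition started the reaction. Fluorescence at 525 nm excitation, 598 nm emission was recorded immediately and after 30 minutes.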
Menin-MLL FL inh = inhibitors of human menin-MLL interaction, wild-type MLL peptide. Fluorescence polarization, fluorescein-MLL peptide displacement from menin. FP activity change, % at 61.4 µM. 290,000 tested, under 10 active. AID 1766; inconclusive = falling polarisation curve, or a change in total fluorescence; inactive = total fluorescence flat and polarisation flat or rising; no compound was filed as active; the % refers to the polarisation; negative = inhibition;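 note: % of control where 0% means no effect; inhibitors lower the polarisation; unlabelled MLL peptide was the positive control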
ClpP mod = qHTS Assay for Activators of ClpP. ATP-dependent Clp protease proteolytic subunit (Bacillus subtilis (strain 168)), P80244. purified B. subtilis ClpP, FRET peptide cleavage, 20 min. Potency, µM (titrated, usually from 57.5 µM), without a hit: top-dose activity change, negative = active. 1.9% of 340,000 active; active = well fitted falling curve with a large enough effect; inconclusive = small, poorly fitted or top-dose-only effect; inactive = no such curve, though single readings can be large or run the other way; note: potency is the fitted concentration of half-maximal effect; the source files actives as falling curves though it sought activators and does not explain the sign; nearly all actives have a fitted effect of over 65% in size; many hits overshoot -100%
Target sequence (P80244 whole entry, looked up): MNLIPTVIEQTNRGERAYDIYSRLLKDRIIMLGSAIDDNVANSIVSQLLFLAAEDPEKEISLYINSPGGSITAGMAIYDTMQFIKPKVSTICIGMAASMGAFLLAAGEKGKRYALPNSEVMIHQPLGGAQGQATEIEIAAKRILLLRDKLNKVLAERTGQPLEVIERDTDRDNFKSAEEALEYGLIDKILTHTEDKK
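ClpP 10 microg/mL final, pH 8 Tris/KCl buffer with BSA, glycerol, Tween-20; compound pinned in; FRET-FV substrate; RT 20 min; Ex320/Em430; ΔFRET vs ADEP 5.8 microM, DMSO, no enzyme.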
TRPML1 blocker = human mucolipin-1 channel inhibition; Q9GZU1; TRPML1-inducible cells, Ca2+ dye fluorescence, FDSS; hits give low values; inhibition of EC80 agonist-evoked calcium signal; activity change, negative = inhibition, % (test concentration not listed); 0.02% of 390,000 active; AID 624415; in the data active means activity change below about -50%; inconclusive means about -30% to -50%; inactive means above about -30%;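 note: stimulus is agonist 54-4 at its EC80 concentration; % is set by controls: 0 for no effect and ±100 for the full control effect; compound concentration not given in the record; the text of the record puts the active cut at -80%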
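Tet-induced TRPML1-DL cells loaded with Ca8 no-wash calcium dye were read kinetically on FDSS. Compound addition was followed by EC80 agonist 54-4 (4 uM final); inhibition was read over 110 s.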
* hit, by the source's call; ? = inconclusive; · = not tested or not shown; & = joins results of further samples; [ ] = another dose, or the depositor's remark.

SMILES | TRPML1 ag | PINK1 modulator | TRPV1 PAM | Sfp PPTase inh | Menin-MLL FL inh | ClpP mod | TRPML1 blocker
Cc1cc(NC(=O)CSc2nc3ccccc3[nH]2)no1 | -1.3 | -1.2% | 1.2 | 9.5% | -1.5 | -0.6% | -9.8
CSc1ccc(Cn2c(C)c(C(=O)NCc3ccc(F)cc3)sc2=O)cc1 | 0.1 | -0.6% | · | · | · | -5.2% | ·
O=c1[nH]n(CC2COC3(CCCCC3)O2)c(=O)c2ccccc12 (configuration not stated) | -0.3 | · | 7.3 | 7.4% | 2.3 | -6.7% | 12.2
Cc1ccc(CNC(=O)CN2C(=O)COc3ccc(S(=O)(=O)Nc4ccccc4)cc32)cc1 | -0.1 | 0.5% | · | · | · | 0.4% | 21.5
COc1ccc(C2C3=C(N=C4SCC(=O)N42)c2ccccc2CC3)cc1OC (configuration not stated) | -0.1 | -2.5%[38.3 µM] | 0.7 | ? | 1.6 | -1.5% | 3.4
O=C(O)C1CCCN(S(=O)(=O)c2ccc(Cl)s2)C1 (configuration not stated) | -0.2 | 0.6% | -25.1 | 18.8% | 1.5 | 0.7% | -11.4
COc1ccc(NS(=O)(=O)c2cccc(C(=O)NCC(c3ccc(OC)cc3)N3CCCCC3)c2)cc1 (configuration not stated) | 1.1 | -0.7% | · | · | · | -4.4% | -4.5
CC1(C(=O)NS(=O)(=O)Cc2ccccc2)CCN1C(=O)Cc1ccccc1Cl (configuration not stated) | -0.4 | -0.7% | · | · | · | -2.6% | ·
COc1ccc(-c2[nH]c(-c3ccccc3)nc2SCC(=O)Nc2ccc3c(c2)OCCO3)cc1 | 1.7 | -1.8% | · | · | · | -25.7% | -4.1
Cc1ccc(NC(=O)CN(C)C(=O)C2CC(=O)N(Cc3ccccc3)C2)cc1 (configuration not stated) | 0.0 | -0.5% | -2.8 | 23.3% | · | 1.5% | -4.6
O=C1c2cccnc2C(Nc2ccccc2Br)N1Cc1ccco1 (configuration not stated) | -0.1 | -0.9% | ? | 56.2µM* | -1.7 | · | -3.3
COc1ccc(C(CNC(=O)c2cccc(S(=O)(=O)Nc3ccc(C)cc3)c2)N2CCOCC2)cc1 (configuration not stated) | -0.8 | 0.1% | 7.5 | · | · | 0.8% | -3.3
Cc1ccc2c(CSc3nnnn3C)cc(=O)oc2c1 | -1.2 | -1.2% | 1.6 | 6.6% | -0.2 | -0.7% | 16.6
COc1ccc(OC)c(NC(=O)COc2ccc3c(c2)CCC3)c1 | 2.0 | -1.4% | 0.8 | · | · | 1.0% | 10.2
CCSC1=NC2(CCCCC2)Nc2sc3c(c21)CCCC3 | -0.7 | 0.8% | -7.6 | 39.8µM* | 2.4 | -9.3% | -2.1
O=C(CSc1nc2ccccc2o1)Nc1nccs1 | -0.6 | 3.3% | -6.3 | -23.1% | 6.1 | 3.9% | -2.1
COC(=O)C1C(=O)N2CCCSC2=C(C#N)C1c1cccs1 (configuration not stated) | -0.3 | · | 7.7 | -0.1% | 3.8 | 1.5% | -5.4
COc1ccc(/C(C)=N/OC/C(O)=C(\C#N)c2nc3ccccc3[nH]2)cc1OC | -1.1 | 6.8% | 0.2 | 11.8% | 13.0 | · | -3.2
O=C(Nc1ccccc1)c1cccc(NC(=O)c2ccco2)c1 | -0.5 | -1.6% | · | · | · | · | -3.6
O=C1NCC(COCC2CC=CCC2)O1 (configuration not stated) | 0.7 | 2.1% | 1.3 | 20.2% | 4.9 | -2.3% | 6.9
CC(C)C[C@H](NC(=O)Nc1ccc(Oc2ccccc2)cc1)C(=O)O | -0.1 | 3.0% | 12.7 | 20.9% | -0.4 | 1.2% | -4.7
CCOC(=O)C1CCCN(C(=O)c2ccc(Cl)c(S(=O)(=O)N3CCc4ccccc43)c2)C1 (configuration not stated) | 5.6 | 2.0% | · | · | · | -12.4% | 30.0
On1c(-c2ccccc2Cl)nc2ncccc21 | · | 7.3% | -4.2 | 6.9% | -3.2 | -0.3% | ·
CC1Cc2ccccc2N1C(=O)CCS(=O)(=O)c1cccs1 (configuration not stated) | 0.2 | -1.6% | -10.6 | 2.3% | 12.5 | -5.0% | -25.1
CCCN(CCC)C(=O)Cn1c(=O)n(-c2ccc(Cl)cc2)c(=O)c2c3c(sc21)CCCC3 | -0.4 | 1.5% | · | · | · | 0.3% | -1.3
CCCCNC(=O)c1ccc(N2CCC3(CC2)OCCO3)c([N+](=O)[O-])c1 | 0.1 | 3.5% | 20.5 | 7.4% | 2.7 | -5.6% | -8.1
COc1ccc(C)c2sc(N(Cc3cccnc3)C(=O)c3cccs3)nc12 | 3.0 | 1.2% | · | · | · | 222.9% | 43.8
Fc1cc(F)c2nc(Nc3nc4c(F)cccc4s3)sc2c1 | 0.0 | ? | 5.4 | -0.9% | 10.9 | 3.55µM* | 8.6
COc1cc(NC(=S)Nc2ccc(Br)cc2Cl)c(OC)cc1Cl | -0.9 | ? | -2.2 | 50.1µM* | -0.8 | -2.4% | -8.5
C=CCOc1cccc(C2C(C(=O)c3ccc(C)o3)=C(O)C(=O)N2CCCn2ccnc2)c1 (configuration not stated) | -0.4 | 1.0% | · | · | · | -4.4% | -1.2
COC(=O)CCC(=O)OC1(C)C(=O)C=C2C=C(C3CC3)N(CCc3c[nH]c4ccccc34)C=C2C1=O (configuration not stated) | -0.2 | 0.0% | -13.9 | -2.4%&14.6% | 0.2[11.7 µM] | -1.5% | -2.1
COc1ccc(OC)c(C2C(C(=O)Nc3ccccc3OC)=C(C)Nc3nc(CCCO)nn32)c1 (configuration not stated) | 0.4 | 0.7% | 13.0 | -7.3% | 1.8 | 0.5% | -12.0
COc1ccc(OC)c(NC(=O)CSc2nncc3ccccc23)c1 | -0.1 | 1.7% | 6.7 | 13.6% | · | -1.4% | 2.0
CC(C)Cn1c(SCC(=O)N2CCOCC2)nc2ccccc2c1=O | 2.6 | -0.3% | -15.6 | · | · | -1.8% | -12.5
CC(C)(C)NC[C@H](O)COc1nsnc1N1CCOCC1 | -0.1&-0.1&-0.6 | 0.0%&0.1%&0.4% | 8.7&7.2 | 16.5%&17.3%&11.9%&3.0% | 5.6 | -3.1%&-1.7%&0.7% | -13.8&-17.5&-8.5
CCOc1ccc(NS(=O)(=O)c2ccc(NC(=O)[C@@H]3CCCC[C@@H]3C(=O)O)cc2)cc1 | -0.4 | -0.2% | -1.6 | 33.3%[activator] | · | 0.5% | -4.3
CS(=O)(=O)N(Cc1ccccc1)c1ccccc1C(=O)Nc1ccccc1C(=O)NCc1ccco1 | 0.8 | 3.0%[38.3 µM] | -4.6 | 18.7% | -1.1 | -0.5% | -3.9
Cc1ccc(S(=O)(=O)Nc2ccccc2C(=O)Nc2nc(-c3ccc(F)cc3)cs2)cc1 | -0.6 | ? | -13.4 | -13.0% | 7.5 | 15.8µM* | 35.0
O=c1ccc2ccc(Oc3ccc(Cl)cc3[N+](=O)[O-])cc2o1 | 1.4 | -1.1% | 1.5 | 0.5% | -3.0 | · | -9.2
COc1cc(NC(=O)Cc2ccccc2)c(C(=O)O)cc1OC | -0.2 | 0.0% | 11.2 | -9.9% | -2.2 | · | -6.9

Some entries already given, showing only ClpP mod, TRPML1 blocker and TRPV1 PAM.
compound | ClpP mod | TRPML1 blocker | TRPV1 PAM
CCOc1ccc(NS(=O)(=O)c2ccc(NC(=O)[C@@H]3CCCC[C@@H]3C(=O)O)cc2)cc1 | 0.5% | -4.3 | -1.6
COC(=O)CCC(=O)OC1(C)C(=O)C=C2C=C(C3CC3)N(CCc3c[nH]c4ccccc34)C=C2C1=O (configuration not stated) | -1.5% | -2.1 | -13.9

Additional records follow:
SMILES | TRPML1 ag | PINK1 modulator | TRPV1 PAM | Sfp PPTase inh | Menin-MLL FL inh | ClpP mod | TRPML1 blocker
Cc1ccc(C(O)(COC(=O)C(C)C)COC(=O)C(C)C)c(O)c1 | -0.3 | 3.7% | 15.8 | 79.4µM* | 0.5 | -3.1% | 19.3
O=C(CNC(=O)N1CC(=O)Nc2ccccc21)NCc1ccccc1Cl | -0.4 | 1.6% | 21.1 | 9.4% | 2.4 | 0.8% | -1.9
Cc1ccc(NS(=O)(=O)N2CCCCC2)cc1 | 1.4 | 5.4% | · | · | · | · | 1.2
CC(C)NC(=O)/C(=C/c1ccco1)c1ccccc1 | -0.1 | 1.8% | -4.3 | -45.7% | 4.7 | -2.5% | -22.6
CNC(=O)Nc1cccc2cccnc12 | 0.1 | -0.5% | 1.4 | 1.3% | 2.6 | · | -12.6
COc1ccc(CN(C)Cc2nc(Cc3ccccc3Cl)no2)cc1OC | 0.9 | 0.6% | -4.1 | 5.7% | 0.4 | · | 18.3
Cc1noc(C)c1NC(=O)N(C)C[C@@H]1Oc2cc(Br)ccc2S(=O)(=O)N([C@H](C)CO)C[C@@H]1C | 0.3 | 2.5% | · | · | · | -2.7% | -5.4
CCn1c(C)nc2cc(C(=O)NNS(=O)(=O)c3ccc(C)c(C)c3)ccc21 | -0.2 | -0.8% | -0.6 | 2.9% | -5.6 | -1.6% | -6.5
CCCCC1(CC(=O)OCC)SCCN1C(N)=O (configuration not stated) | -0.5 | 0.9% | · | · | · | 0.8% | -3.9
C1=CC2CCC1ON2c1ccccc1 (configuration not stated) | 1.0 | 2.9% | 13.0 | 0.9% | 0.5 | -0.6% | -3.4
NC(Cc1ccccc1)c1csc(Nc2ccc(C(=O)c3ccccc3)cc2)n1 (configuration not stated) | 4.0 | -0.9% | · | · | · | -5.0% | 49.7
O=S1(=O)C[C@H](N2CCC[C@@H]2CO)[C@@H](COCc2ccccc2)N1 | -0.6 | -0.7% | · | · | · | -1.1% | ·
O=C(CCOc1ccccc1)N1CCN(S(=O)(=O)c2ccccc2F)CC1 | 0.2 | 1.8% | -7.6 | · | · | 2.1% | -23.5
COC(=O)CSc1nnc(-c2ccccc2OC)n1-c1ccc(C)cc1 | -0.1 | 0.1% | 0.8 | 9.2% | 3.0 | -2.8% | -11.8
CCOC(=O)C(Cc1cc(C(C)=O)ccc1OC(C)C)C(=O)OCC | 1.3 | 0.7% | -30.4 | 17.5% | -3.4 | -3.5% | -6.1
CCCN1C(=O)COc2ccc(-c3n[nH]c(=O)c4ccccc34)cc21 | 0.2 | 1.3% | 8.6 | 13.0% | 2.1 | · | -15.2
O=C(COC(=O)C1=COCCO1)Nc1ccc(F)c(F)c1 | 0.5 | -0.5% | 1.3 | · | · | -3.8% | -21.3
Cc1ccc(S(=O)(=O)NCCC(=O)Nc2ccc(C)c(Cl)c2)cc1C | 3.3 | 7.6% | 6.5 | 21.5% | -0.3 | ? | 30.3
